Env fusion inh – blocks HIV Env-driven cell-cell fusion; HeLa-JRFL Env/CEM21 cell fusion, luciferase; inhibition, % at 12.3 µM; actives 1.1% (n = 360,000); AID 651610;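 active = mean replicate inhibition score of at least 50 and every replicate individually at or above 50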;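 also: 0% = plate neutral controls and 100% = maraviroc near 300 nM; one replicate is shown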
Active calls of the source: *; [ ] = dose if it differs, or a comment.

Env fusion inh	canonical_smiles
-2[16.7 µM]	C[C@@H]1CCCCO[C@@H](CN(C)CC2CC2)[C@H](C)CN([C@H](C)CO)C(=O)c2cc(NC(=O)C3CCCCC3)ccc2O1
-9[16.7 µM]	COc1ccc2c3c([nH]c2c1)[C@H](CO)N(C(=O)c1ccncc1)CC31CCN(C(=O)Nc2cccc(F)c2)CC1
-18	O=C(CCc1c[nH]c2ccccc12)Nc1ccc(Nc2ccncc2)cc1
26[16.7 µM]	CC(C)(C)[S@](=O)N1Cc2cc(C(=O)NCc3ccc4c(c3)OCO4)nc(-c3cccc(-c4ccncc4)c3)c2[C@@H]1CCO
2[16.7 µM]	CO[C@H]1CN(C)C(=O)c2ccc(NS(=O)(=O)c3ccccc3C)cc2OC[C@@H](C)N(C)C[C@H]1C
-27	C[C@@H]1CN(C(=O)OC(C)(C)C)CCN1c1ccc(N2CC[C@H](O)C2)c(C#N)c1
-7[16.7 µM]	CN(C)c1ccc2c(c1)[C@@H]1C[C@@H](CC(=O)NCCN3CCCCC3)O[C@H](CO)[C@@H]1O2
12[16.7 µM]	CO[C@@H]1CN(C)C(=O)c2ccc(NC(=O)C3CCOCC3)cc2OC[C@@H](C)N(C(=O)Nc2ccc(C(F)(F)F)cc2)C[C@H]1C
9[16.7 µM]	CO[C@H]1CN(C)C(=O)c2cc(NS(=O)(=O)c3cn(C)cn3)ccc2OC[C@@H](C)N(C)C[C@@H]1C
-5[16.7 µM]	C[C@@H]1CN([C@@H](C)CO)C(=O)c2cccc(NC(=O)Nc3ccccc3)c2O[C@H]1CN(C)S(=O)(=O)c1cccs1
1[16.7 µM]	COc1ccc(NC(=O)N(C)C[C@@H]2Oc3c(NC(=O)NC4CCCCC4)cccc3C(=O)N([C@H](C)CO)C[C@@H]2C)cc1
-5[16.7 µM]	COc1ccc2c3c([nH]c2c1)[C@H](CO)N(S(=O)(=O)c1ccccc1)CC31CCN(C)CC1
-7	COC(=O)CCN(Cc1cccc(OC)c1OC)S(=O)(=O)c1ccccc1Br
-1[16.7 µM]	CC(C)NC(=O)Nc1ccc2c(c1)C(=O)N([C@H](C)CO)C[C@@H](C)[C@@H](CN(C)C(=O)Nc1cccc3ccccc13)O2
12[16.7 µM]	C[C@@H]1CN([C@H](C)CO)C(=O)c2cc(NS(=O)(=O)c3ccccc3)ccc2O[C@H]1CN(C)S(=O)(=O)c1ccc(F)cc1
8	CC(C)=CC(=O)NCC1CCN(C(=O)C(=O)c2cc3ccccc3o2)CC1
10[16.7 µM]	CO[C@@H]1CC[C@@H]2CCOc3c(C#N)cccc3C(=O)N(C)CCCC(=O)N(C)C[C@@H]1O2
-2[16.7 µM]	C[C@@H]1CN([C@H](C)CO)C(=O)CCCn2nncc2CO[C@@H]1CN(C)Cc1cccnc1
-16[16.7 µM]	CC(C)(C)[S@](=O)N1Cc2cc(C(=O)N3CCCCC3)nc(-c3cccc(-c4ccc(C#N)cc4)c3)c2[C@@H]1CCO
11[16.7 µM]	CCNC(=O)C[C@H]1CC[C@H]2[C@@H](COC[C@@H](O)CN2C(=O)Nc2ccc(C(F)(F)F)cc2)O1
0[16.7 µM]	CC(C)NC(=O)Nc1ccc2c(c1)C(=O)N([C@@H](C)CO)C[C@@H](C)[C@H](CN(C)C(=O)c1ccncc1)OCCCC[C@@H](C)O2
6	C=CCN=C1NC(c2cccc(Cl)c2)C(C(=O)OC)=C(C)N1C (configuration not stated)
-4[16.7 µM]	COc1ccc(-c2ccccc2[C@H]2[C@@H](CO)N(C(=O)c3cccnc3)[C@H]2C#N)cc1
3[16.7 µM]	CCC(=O)N1C[C@@H](O)COC[C@@H]2O[C@H](CC(=O)NCc3cc(F)cc(F)c3)CC[C@H]21
2[16.7 µM]	O=C(Nc1ccc(Cl)c(Cl)c1)N[C@@H]1CC[C@@H](CCNC(=O)c2ccc(F)cc2)O[C@H]1CO
18[16.7 µM]	CO[C@@H]1CN(C)C(=O)c2ccc(NS(C)(=O)=O)cc2OC[C@@H](C)N(C(=O)c2ccc3c(c2)OCO3)C[C@H]1C
-26[16.7 µM]	CS(=O)(=O)Nc1ccc2c(c1)[C@@H]1C[C@@H](CC(=O)NCCc3ccccc3)O[C@@H](CO)[C@@H]1O2
-6	O=C(Cc1ccccc1)N1O[C@H]2C=C[C@@H]1C2
-2[16.7 µM]	C[C@@H]1CN([C@@H](C)CO)S(=O)(=O)c2ccc(C3=CCCC3)cc2O[C@@H]1CN(C)C(=O)c1ccc(F)cc1
-10[16.7 µM]	CN1C(=O)c2cc(NS(C)(=O)=O)ccc2OC[C@@H]2O[C@H](CC(=O)NCc3ccc(-c4ccccc4)cc3)CC[C@H]21
13[16.7 µM]	COc1ccc(S(=O)(=O)N(C)C[C@@H]2OCCCC[C@@H](C)Oc3ccc(N(C)C)cc3C(=O)N([C@H](C)CO)C[C@@H]2C)cc1
2[16.7 µM]	C[C@@H]1CN([C@H](C)CO)C(=O)c2cc(NS(C)(=O)=O)ccc2O[C@H]1CN(C)Cc1ccc2c(c1)OCO2
34	CC1CCCN(c2cccc3c2S(=O)(=O)N([C@H](C)c2ccccc2)C[C@@H](COCc2ccccc2)O3)C1 (some centres not stated)
-4[16.7 µM]	COc1cccc(CN2CC3(CN(S(C)(=O)=O)C3)c3c(n(C)c4cc(OC)ccc34)[C@H]2CO)c1
-7[16.7 µM]	CCCNC(=O)C[C@H]1CC[C@H]2[C@@H](COC[C@@H](O)CN2C(=O)c2cccnc2)O1
1[16.7 µM]	C[C@H]1CN([C@@H](C)CO)C(=O)c2c(c3ccccc3n2C)-c2ccccc2CO[C@@H]1CN(C)C(=O)[C@@H](Cc1ccccc1)N(C)C
-194	COC(=O)C1=C(C)N(Cc2ccc(C(F)(F)F)cc2)C(=NCC2CC2)NC1c1ccccc1C(F)(F)F (configuration not stated)
57*[16.7 µM]	C[C@H](C(=O)N(C)C[C@@H]1OCc2ccccc2-c2ccccc2C(=O)N([C@H](C)CO)C[C@@H]1C)c1ccccc1
0[16.7 µM]	C[C@H]1CN([C@@H](C)CO)C(=O)CCCn2cc(nn2)CO[C@H]1CN(C)C(=O)Nc1ccc(N2CCCCC2)cc1
11[16.7 µM]	O=C(C[C@@H]1C[C@@H]2c3cc(NC(=O)C4CCC4)ccc3O[C@@H]2[C@H](CO)O1)NCc1cccc(F)c1

Single entries from the list.
Result of `C[C@@H]1CN([C@H](C)CO)C(=O)c2cc(NS(C)(=O)=O)ccc2O[C@H]1CN(C)Cc1ccc2c(c1)OCO2` in Env fusion inh: 2[16.7 µM]
Result of `O=C(Nc1ccc(Cl)c(Cl)c1)N[C@@H]1CC[C@@H](CCNC(=O)c2ccc(F)cc2)O[C@H]1CO` in Env fusion inh: 2[16.7 µM]

The main list resumes, starting six compounds before the break.
Env fusion inh	canonical_smiles
-7[16.7 µM]	CCCNC(=O)C[C@H]1CC[C@H]2[C@@H](COC[C@@H](O)CN2C(=O)c2cccnc2)O1
1[16.7 µM]	C[C@H]1CN([C@@H](C)CO)C(=O)c2c(c3ccccc3n2C)-c2ccccc2CO[C@@H]1CN(C)C(=O)[C@@H](Cc1ccccc1)N(C)C
-194	COC(=O)C1=C(C)N(Cc2ccc(C(F)(F)F)cc2)C(=NCC2CC2)NC1c1ccccc1C(F)(F)F (configuration not stated)
57*[16.7 µM]	C[C@H](C(=O)N(C)C[C@@H]1OCc2ccccc2-c2ccccc2C(=O)N([C@H](C)CO)C[C@@H]1C)c1ccccc1
0[16.7 µM]	C[C@H]1CN([C@@H](C)CO)C(=O)CCCn2cc(nn2)CO[C@H]1CN(C)C(=O)Nc1ccc(N2CCCCC2)cc1
11[16.7 µM]	O=C(C[C@@H]1C[C@@H]2c3cc(NC(=O)C4CCC4)ccc3O[C@@H]2[C@H](CO)O1)NCc1cccc(F)c1
12[16.7 µM]	COc1cccc(NC(=O)N2C[C@@H](O)COC[C@H]3O[C@@H](CC(=O)NC4Cc5ccccc5C4)CC[C@@H]32)c1
12	Cc1ccc(S(=O)(=O)NCC2CCN(C(=O)C(=O)c3cc4ccccc4o3)CC2)cc1
18[16.7 µM]	CO[C@H]1CN(C)C(=O)c2ccc(NC(=O)Nc3cc(F)ccc3F)cc2OC[C@H](C)N(C(=O)c2cnccn2)C[C@@H]1C
6[16.7 µM]	CCCNC(=O)C[C@@H]1CC[C@H]2[C@@H](COC[C@@H](O)CN2C(=O)c2cccnc2)O1
-22[16.7 µM]	O=C(C[C@H]1CC[C@H]2[C@@H](COC[C@@H](O)CN2C(=O)c2ccc3c(c2)OCO3)O1)NCCN1CCCCC1
5[16.7 µM]	O=C(NCc1cc(F)cc(F)c1)[C@H]1[C@H](CO)[C@H]2Cn3c(cccc3=O)[C@@H]1N2C(=O)c1cnccn1
16[16.7 µM]	CC(C)NC(=O)N1Cc2cc(C(=O)NC3Cc4ccccc4C3)nc(-c3cccc(-c4cccnc4)c3)c2[C@H]1CCO
-9[16.7 µM]	O=C(C[C@H]1CC[C@@H]2[C@H](COC[C@@H](O)CN2Cc2cccc(-c3ccncc3)c2)O1)N1CCOCC1
36[16.7 µM]	COc1cccc(S(=O)(=O)Nc2ccc3c(c2)[C@H]2C[C@@H](CC(=O)NCc4ccc(Cl)cc4)O[C@H](CO)[C@H]2O3)c1
-1[16.7 µM]	CO[C@H]1CN(C)C(=O)c2ccc(NC(=O)C3CCCCC3)cc2OC[C@@H](C)N(Cc2cccnc2)C[C@H]1C
-35[16.7 µM]	CCCN(C)C[C@H]1OCCCC[C@H](C)Oc2ccc(NS(=O)(=O)c3ccc(C)cc3)cc2C(=O)N([C@H](C)CO)C[C@H]1C
-1[16.7 µM]	C[C@H](CO)N1C[C@H](C)[C@@H](CN(C)C(=O)Nc2cccc3ccccc23)Oc2c(NS(C)(=O)=O)cccc2C1=O
19[16.7 µM]	CO[C@H]1CC[C@H]2CCOc3ccc(C#N)cc3C(=O)N(C)C[C@@H](OC)[C@@H](C)C(=O)N(C)C[C@H]1O2
11	C#CCN1C(=O)[C@]2(OCCC=C[C@H]2C)c2ccccc21
12[16.7 µM]	Cc1ccc(S(=O)(=O)N[C@H]2CC[C@@H](CC(=O)N3CCc4ccccc4C3)O[C@@H]2CO)cc1
-28	Nc1[nH]c(C(=O)c2ccccc2)c(-c2ccc3ccccc3c2)c1C(=O)NCc1ccc(-c2ccccc2)cc1
-14[16.7 µM]	COc1ccc2c3c(n(C)c2c1)[C@H](CO)N(CC1CC1)CC31CN(C(C)=O)C1
2[16.7 µM]	Cc1noc(C)c1NC(=O)NCC[C@H]1CC[C@H](NC(=O)c2ccc(F)cc2)[C@@H](CO)O1
-26[16.7 µM]	C[C@@H]1CN([C@@H](C)CO)C(=O)c2cccc(NC(=O)C3CCCCC3)c2O[C@H]1CN(C)S(=O)(=O)c1ccc(Cl)cc1
38[16.7 µM]	C[C@H](CO)N1C[C@H](C)[C@H](CN(C)Cc2ccc(Cl)c(Cl)c2)OCc2cnnn2CCCC1=O
4[16.7 µM]	C[C@@H]1CCCCO[C@@H](CN(C)Cc2ccncc2)[C@@H](C)CN([C@H](C)CO)C(=O)c2cc(NS(C)(=O)=O)ccc2O1
1[16.7 µM]	C[C@@H]1CN([C@H](C)CO)C(=O)c2c(c3ccccc3n2C)-c2ccccc2CO[C@H]1CN(C)C(=O)C1CC1
-3[16.7 µM]	O=C(N[C@@H]1C=C[C@@H](CC(=O)N2CCCCC2)O[C@H]1CO)c1ccc2c(c1)OCO2
-26	NC(=O)NN=C1CCC(O)CC1CC(=O)O (configuration not stated)
-12	O=Cc1cscc1[B-](F)(F)F
-18	CN1C(c2ccccc2)CC(C)(O)CC1c1ccccc1 (configuration not stated)
3[16.7 µM]	CCCN(C)C[C@@H]1Oc2cc(C3=CCCCC3)ccc2S(=O)(=O)N([C@@H](C)CO)C[C@H]1C
-11[16.7 µM]	COc1ccc(-c2ccccc2[C@H]2[C@@H](CO)N(C(=O)C3CCCC3)[C@H]2C#N)cc1
-55	CCOC(=O)N[C@H](C(=O)N1CCC[C@H]1C(=O)NCCc1ccccc1Cl)C1CCCCC1
-3	COC(=O)c1cc2c(c3c4cc(C#N)ccc4n(S(=O)(=O)c4ccc(C)cc4)c13)C(=O)N(C)C2
-7[16.7 µM]	Cc1ccccc1NC(=O)C[C@H]1CC[C@H]2[C@@H](COc3ccc(NC(=O)NC(C)C)cc3C(=O)N2C)O1
17[16.7 µM]	C/C=C/c1ccc2c(c1)O[C@@H](CN(C)C(=O)C1CCC1)[C@@H](C)CN([C@@H](C)CO)S2(=O)=O
-45[16.7 µM]	COc1ccc(NC(=O)Nc2ccc3c(c2)CC(=O)N([C@H](C)CO)C[C@H](C)[C@H](CN(C)S(=O)(=O)c2ccc(Cl)cc2)O3)cc1
-12[16.7 µM]	CN(C)C(=O)[C@H]1[C@H](CO)[C@H]2Cn3c(ccc(-c4cccc(F)c4)c3=O)[C@@H]1N2Cc1ccccc1
36	CN(C(=O)CCc1cn(C)c2ccccc12)c1ccc(Oc2cccnc2)cc1
14[16.7 µM]	COc1ccc(-c2cnc3c(c2)C(=O)N([C@H](C)CO)C[C@H](C)[C@@H](CN(C)S(=O)(=O)c2ccc(OC)cc2)O3)cc1
-9[16.7 µM]	CCN1C[C@@H](C)[C@H](OC)CN(C)C(=O)c2ccc(NC(=O)c3ccno3)cc2OC[C@H]1C
43[16.7 µM]	C[C@H]1CN([C@@H](C)CO)C(=O)c2ccccc2-c2ccccc2CO[C@@H]1CN(C)Cc1cccnc1
-20	O=S(=O)(c1ccccc1)N1CCCc2nc(-c3ccc(F)cc3)ccc21
-21[16.7 µM]	CCOC(=O)c1cc2c(c(-c3cccc(Br)c3)n1)[C@@H](CCO)N(C(=O)NC(C)C)C2
-3[16.7 µM]	C[C@@H]1CN([C@@H](C)CO)C(=O)Cc2cc(NS(C)(=O)=O)ccc2O[C@H]1CN(C)C(=O)Nc1cccc2ccccc12
29[16.7 µM]	CC(C)(C)[S@](=O)N1Cc2cc(C(=O)NCC(F)(F)F)nc(-c3cccc(-c4cccc(F)c4)c3)c2[C@@H]1CCO
10[16.7 µM]	CO[C@@H]1CN(C)C(=O)c2cc(NC(=O)Nc3ccccc3F)ccc2OC[C@H](C)N(C(C)=O)C[C@H]1C
-20[16.7 µM]	CN1CCN(C(=O)C[C@H]2CC[C@H]3[C@@H](COC[C@H](O)CN3C(=O)Nc3ccc4c(c3)OCO4)O2)CC1
-22[16.7 µM]	COc1cccc(NC(=O)N(C)C[C@@H]2OCc3ccccc3-c3ccccc3C(=O)N([C@H](C)CO)C[C@H]2C)c1

Screening data from PubChem.

A portion of the library; the hit share may differ from the screen's.
